CapD inh: blocks the Bacillus anthracis CapD enzyme; purified CapD enzyme, fluorescence intensity read-out; stronger effect = lower value; some hits fall short of the stated cut; AID 492967; hit rate 0.23% among 140,000; z-score (no concentration beside the values);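 active means z-score under -4 in either of two replicates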;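 further: stock transfer was 100 nL into about 40 µL; score is relative to mean and spread of the plate; one replicate is shown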
AID504770: E. coli YBA685 growth inhibition, screen for V. cholerae RctB inhibitors; E. coli YBA685 rctB-dependent plasmid, OD600 growth, 3 h; stronger effect = lower value; z-score (no concentration beside the values); hit rate 0.27% among 130,000; AID 504770;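 active means z-score under -2 on both plates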;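 further: wells of about 30 µL received 100 nL stock; score is relative to mean and SD of the test wells; the first replicate is given; strong numbers were not always called active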
* hit, by the source's call; / = not tested or not shown; & = joins results of further samples.

Second line of a record: CapD inh, AID504770
O=c1[nH]c(-c2cccc(O)c2)nc2c1Cc1ccccc1O2
    1.85, 1.4
COc1ccccc1/C=C1/SC(=S)N(CN2CCCCC2)C1=O
    -1.26, /
Cc1ccc(C(=O)Sc2ncc(C(F)(F)F)cc2Cl)cc1
    10.5, -1.15
CC(C)(C)c1cc(OC(=O)c2ccc(Cl)cc2Cl)c(C(C)(C)C)cc1OC(=O)c1ccc(Cl)cc1Cl
    0.215, /
O=C(NNC(=O)c1ccc(O)cc1)OCCc1cccc(F)c1
    0.175, /
O=C(NCc1cn2ccsc2n1)c1cccs1
    -0.065, -0.25
COCCNC(=S)N1CCC(Cc2ccccc2)CC1
    0.07, -0.35
Cc1oc(-c2cccs2)nc1CSCC(=O)N1CCC2(CC1)OCCO2
    0.39, -0.6
COC(=O)c1cc(-c2ccc(S(=O)(=O)NCc3ccccn3)cc2)c(C(F)(F)F)s1
    -0.505, -0.7
COc1ccccc1C(=O)N1c2ccccc2Sc2ccc(C(F)(F)F)cc21
    0.33, /
Cc1nc(N2CCN(C)CC2)c2c(C)c(C(=O)NCc3ccc(F)cc3)sc2n1
    4.39, /
CC(C)(C)c1ccc(COC(=O)N2CCC(N3CCCCC3)CC2)cc1
    -0.415, /
Clc1ccc(-c2nc3ncccc3n2OCc2cccc(Cl)c2)cc1
    1.21, /
O=C(NCc1cc(F)cc2c1OCOC2)c1ccno1
    0.91, 1.6
Cc1ccc(-c2csc(C(C#N)=C3CCCCC3)n2)cc1
    -0.04, /
O=C1CCC(=O)N1c1ccccc1
    /, -0.7
CCC(=O)N1CCc2cc(S(=O)(=O)NC(CC(C)C)C(=O)N3CCC(C)CC3)ccc21 (stereo unspecified)
    0.095, 1.7
CC(C)(C)c1ccc(COC(=O)NC(Cc2ccccc2)C(=O)Nc2ccc([N+](=O)[O-])cc2)cc1 (stereo unspecified)
    -0.805, /
O=C(CN1CCN(c2ccccc2Cl)CC1)N1CCc2ccccc21
    /, 1.35
O=C(NCCN1CCOCC1)Nc1c[nH]c2ccccc12
    /, -1
CCC(C)(C)NC(=O)c1ccc2c(c1)N(CC#N)C(=O)C(C)(C)O2
    /, -0.05
COc1ccccc1NC(=O)Cc1coc2c(C)c(C)ccc12
    0.31, 0.8
COc1ccc(C(=O)OCC(=O)N2c3ccccc3CC2C)cc1 (stereo unspecified)
    /, 0.1
Cc1noc(C)c1CCC(=O)Nc1ccc(-c2cc3ccccc3o2)cc1
    /, 1.3
COc1cc(Br)c(OC)cc1Br
    -0.005, /
OC(CSc1ccc(Cl)cc1)CN1CCN(c2ccccc2)CC1 (stereo unspecified)
    -0.255, /
CCCc1nn2cc(CC(=O)NN)nc2s1
    -0.61, 0
Cc1ccc(N=Cc2ccc(Cl)cc2)cc1C
    -0.455, -0.65
COc1ccc2nc(SCC(=O)c3ccc4c(c3)OCO4)[nH]c2c1
    -0.055, 0.8
COc1cc2c(cc1OC)n(CC(=O)NC1CCCCCC1)n1c(C)cc(=O)nc21
    44.3, 0.9
CCOc1cc(C2C(C(=O)OCCSCC)=C(C)NC3=C2C(=O)CC(C)(C)C3)cc(Cl)c1O (stereo unspecified)
    1.15, /
CN1CC(c2ccccc2)Oc2ccccc2C1=O (stereo unspecified)
    -1.11, -1.2
CCCS(=O)(=O)n1c(SCC(=O)Nc2cc(Cl)ccc2OC)nc2ccccc21
    -0.29, /
Cc1ccc(-c2n[nH]c3c2C(c2ccc(F)cc2)N(c2ccccc2)C3=O)cc1 (stereo unspecified)
    -0.43, /
c1ccc(Cn2c(C3CC3)nc3ccccc32)cc1
    0.015, -0.8
O=C(Nc1cccc(Cl)c1)N1C[C@H]2C[C@@H](C1)c1cccc(=O)n1C2
    0.29, /
O=C(CSC(=S)N1CCCCC1)N1c2ccccc2CCc2ccccc21
    -0.19, -0.25
Cc1cc2cc(CNC(=O)/C=C\c3ccc4c(c3)OCO4)ccc2[nH]1
    10.3, 0.15
COc1ccc2cc(CCNS(C)(=O)=O)c(=O)[nH]c2c1
    28.8, -0.45
CCN1CCN(CC(O)COc2cccc(OC)c2)CC1 (stereo unspecified)
    -0.905, -0.85
CC1(C)CC(=O)C(=Cc2cn(CCC#N)nc2-c2ccc(F)cc2)C(=O)C1
    -0.84, 1.4
O=C(CCNS(=O)(=O)c1ccccc1)N1CCCC1
    -0.335, 0.25
CCCCc1ccc(NC(=O)C(C)CC)cc1 (stereo unspecified)
    0.44, -0.5
Cc1ccc(C2CC(C(F)(F)F)n3ncc(C(=O)NCCc4c[nH]c5ccccc45)c3N2)cc1 (stereo unspecified)
    0.395, /
O=C(Nc1nccs1)Oc1ccccc1
    -0.21, 0.85
O=C(O/N=C1\CCSc2ccc(F)cc21)c1ccc(Cl)cc1
    1.55, /
Nn1cnnc1SCC(=O)N(C1CCCCC1)C1CCCCC1
    /, 0.3
COc1cc(C2C3=C(CC(C)(C)CC3=O)OC3=C2C(=O)CC(C)(C)C3)ccc1OCc1ccc(C)cc1
    -0.175, /
O=C(Nc1sc2c(c1C(=O)Nc1ccc(Br)cc1)CCCCC2)c1ccccc1Cl
    -0.355, /
CC(C)c1nc2ccccc2n1C(=O)/C=C/C(=O)O
    -0.385, 1.65
Cc1ccc(NC2OC(=O)c3ccccc32)cc1 (stereo unspecified)
    /, -0.65
CC(C)Sc1nnc(NC(=O)CCc2ccccc2)s1
    /, 0.1
CC(C)(CC(=O)O)CC(=O)N1CCN(C2c3ccccc3-c3ccccc32)CC1
    -0.6&1.35, 0.05
COc1ccc(NC(=O)CS(=O)CC(=O)NC2CCCc3ccccc32)cc1 (stereo unspecified)
    /, -0.25
CC1CCC(C(C)C)C(OC(=O)CSc2nnc(-c3ccco3)n2Cc2ccccc2)C1 (stereo unspecified)
    /, 0.45
COC1OC(CO)C(O)CC1O (stereo unspecified)
    -0.16, 0.15
Oc1cccc(/C=N/n2cnnc2SCc2ccc(Cl)cc2)c1O
    /, 0.55
N#C/C(=C1/CCCN1)c1nc(-c2ccccc2)cs1
    /, -0.25
CCC1CCCCN1C(=O)Cc1cn(Cc2cccc(Cl)c2)c2ccccc12 (stereo unspecified)
    -0.98, /
CCCc1nc2ccccc2n1CC(=O)N1N=C(c2ccc(Cl)cc2)CC1c1ccco1 (stereo unspecified)
    /, -0.05

Next part
Second line of a record: CapD inh, AID504770
Cc1cccc(-n2nnnc2C2(N(C)C=O)CCCCC2)c1
    -0.215, /
COc1cc(Cl)ccc1N=NN1CCOCC1
    -1.91, -3.95*
O=C1S/C(=C/c2ccccc2F)C(=O)N1CCN=C1NS(=O)(=O)c2ccccc21
    0.15, /
Cc1cc(C)c(C#N)c(SCC(O)COc2ccc(C(C)(C)C)cc2)n1 (stereo unspecified)
    0.345, /
CN(C)CCC(=O)Nc1nc(-c2ccc(Cl)cc2)cs1
    -0.355, -0.9
O=C1CSCN1c1ccc(C(F)(F)F)cc1
    -0.36, -0.6
Cc1nn(-c2ccc(F)cc2)nc1C(=O)Nc1ccc(Br)cc1
    0.905, /
COCCn1cnnc1SCC(=O)c1ccc2ccccc2c1
    /, -0.25
O=C(CSc1nc2ccccc2c(=O)n1CCCC(=O)N1CCN(c2ccccc2)CC1)NC1CCCCC1
    -1.65, /
CCc1cc(=O)oc2cc(OCC(=O)OC)c(Cl)cc12
    13.9, 1.05
O=C1N(Cc2c(Cl)cccc2Cl)c2ccccc2C12NN=C(c1ccccc1)S2 (stereo unspecified)
    -0.02, /
CCOC(=O)Cn1c(O)c(N=NC(=O)c2ccc(/C=N/O)nc2)c2ccccc21
    -1.17, -0.1
O=C(NC1CCCCC1)SCc1ccccc1
    -0.555, -0.05
COc1cccc2c1N(C(=O)c1ccc(Br)cc1)C(C)(C)c1ssc(=S)c1-2
    0.58, /
CC(=O)Nc1ccc(S(=O)(=O)N2CCCC(O)C2)cc1 (stereo unspecified)
    -0.425, /

Compound profiles (already shown). Screens in order: CapD inh | AID504770
Shown for COc1ccccc1C(=O)N1c2ccccc2Sc2ccc(C(F)(F)F)cc21 → 0.33 | /
Shown for COC(=O)c1cc(-c2ccc(S(=O)(=O)NCc3ccccn3)cc2)c(C(F)(F)F)s1 → -0.505 | -0.7
Shown for O=C(CCNS(=O)(=O)c1ccccc1)N1CCCC1 → -0.335 | 0.25
Shown for CCCS(=O)(=O)n1c(SCC(=O)Nc2cc(Cl)ccc2OC)nc2ccccc21 → -0.29 | /
Shown for COc1cc(Br)c(OC)cc1Br → -0.005 | /

Later entries.
Second line of a record: CapD inh, AID504770
N#Cc1cc2nc3c(nc2cc1C#N)-c1cccc2cccc-3c12
    /, -0.4
CC(C)(C)C(=O)C1C(c2ccc(C(F)(F)F)cc2)C(C#N)(C#N)C2C=Cc3ccccc3N12 (stereo unspecified)
    8.4, /
CC(C)(C)C(=O)C(Cc1nnc(-c2ccc(Cl)cc2)o1)C(=O)C(C)(C)C
    /, -0.45
CCSc1nnc(C2CCCN(CC(=O)Nc3ccc(C)cc3Br)C2)n1C(C)C (stereo unspecified)
    /, -0.6
O=C(Nc1ccc(Cl)cc1)C(O)c1ccccc1Cl (stereo unspecified)
    0.72, /
CC(=O)OCC(=O)[C@H]1CC[C@H]2[C@@H]3CC[C@H]4C[C@H](O)CC[C@]4(C)[C@H]3C(=O)C[C@]12C
    -0.05, /
O=c1ccnc(SCc2cccc(Cl)c2)[nH]1
    -0.015, -1.25
Cc1cc(O)c(C(C)C)cc1CNC(=O)c1ccccc1O
    17.1, -0.05
Brc1ccc(CSc2nnc(-c3ccccc3)c(-c3ccccc3)n2)cc1
    0.415, /
CNC(=S)N1CCc2sccc2C1C (stereo unspecified)
    -0.675, 1.35
C=CCN(Cc1nc(-c2ccccc2)no1)S(=O)(=O)c1ccccc1
    -0.14, -0.5
O=C(/C=C/c1cccc2ccccc12)NC1CCCCC1
    11.4, 3
CCS(=O)(=O)NCCc1cc2ccc(C)cc2[nH]c1=O
    18.7, -0.85
N#CSCC(=O)n1c2ccccc2c2ccccc21
    0.315, 1.45
CCCCn1c(SCC(=O)Nc2cc(C)on2)nc2ccsc2c1=O
    -0.35, 0
Cc1c(C(=O)NC2CCCC2)sc2nc(-c3ccccc3)cn12
    -0.015, 0.05
N#Cc1c(OCC(F)(F)F)ccc(Br)c1OCC(F)(F)F
    -0.325, -0.7
O=C(C[n+]1ccccc1)c1cc2ccccc2oc1=O
    -0.425, -0.25
COC(=O)CN1C(c2ccccc2Cl)=Nc2ccc(Br)cc2C1c1ccccc1 (stereo unspecified)
    -1.49, /
Cc1ccc(C)c(N/C=C(\C#N)c2nc3ccccc3o2)c1
    /, 1.85
O=C1CCS(=O)(=O)c2ccccc21
    0.505, -0.4
O=C(Cc1nc2ccccc2[nH]1)N1CCCC1
    /, -0.45
CC1(C)CC(=O)C2=C(C1)OC1=C(C(=O)CC(C)(C)C1)C2c1c(O)ccc2ccccc12
    -0.485, /
N#Cc1c(-c2ccccc2Cl)noc1/C=C/Nc1cccc(Cl)c1
    -0.125, /
CN(C(=O)NCc1noc2ccccc12)c1ccccc1Cl
    0.31, -1.35
Cc1sc(-c2ccccc2)nc1CC(=O)NNC(=O)c1ccccc1OC(F)(F)F
    1.29, /
COc1ccc2c(c1)c1c3n2CCN=C3N(C)CC1
    -1.09, -0.7
O=C(O)c1cc(-c2ccc(Cl)cc2)n(-c2ccc(Cl)cc2)n1
    0.38, -0.45
Cn1ccnc1SCC(=O)Nc1ccc2c(c1)OCO2
    -0.115, 0.9
Cc1ccccc1S(=O)Cc1ccc(C(=O)N2CC(C)CC(C)C2)o1 (stereo unspecified)
    -0.53, 0.5
Cc1ccc2nc(N3CCCC3)[nH]c2c1
    0.025, 0
O=S1(=O)CC(N2CCOCC2)c2ccccc21 (stereo unspecified)
    0.745, -0.25
O=C(c1cccs1)c1cn(CC(=O)N2CCOCC2)c2ccccc12
    -1.52, -0.4
O=C(Nc1cccc(C(F)(F)F)c1)c1c[nH]c2ccc(S(=O)(=O)N3CCc4ccccc4C3)cc2c1=O
    1.26, /
Cc1ccc2c(c1)oc(=O)n2CC(=O)c1ccccc1
    0.55, -0.7
O=C(c1ccccc1)N1CCN(CC(O)Cn2c3ccccc3c3ccccc32)CC1 (stereo unspecified)
    3.52, /
COc1cc(CCN2C(=O)c3c(C(C)C)nc4ccccc4c3C2=O)cc(OC)c1
    -0.115, /
COc1cc(C(=O)NCC(c2cccnc2)N2CCN(C)CC2)cc(OC)c1OC (stereo unspecified)
    -0.135, -1
COc1ccc(-c2cccs2)cc1
    2.32, /
CCCOc1ccc2c(C)c(CCC)c(=O)oc2c1
    56.8, -0.3
O=C(c1ccco1)N1CCN(C(=O)c2ccco2)CC1
    0.29, 2.15
O=C(CC1S/C(=N\N=C2\CSC(=O)N2)N(Cc2ccco2)C1=O)Nc1ccc(Br)cc1 (stereo unspecified)
    /, 0.1
C=CCn1c(SCC(O)Cn2c3ccccc3c3ccccc32)nnc1-c1ccco1 (stereo unspecified)
    /, 0.7
c1cc2c(cc1Nc1nc3nonc3nc1Nc1ccc3c(c1)OCO3)OCO2
    0.47, /
Cc1ccc(-n2c(Sc3ncccc3C#N)nnc2N2CCOCC2)cc1
    /, 0.75
O=C(CSc1nnc(NC(=O)c2cccs2)s1)Nc1ccccc1F
    0.1, 0
CC(Oc1ccccc1)C(=O)NCc1ccccn1 (stereo unspecified)
    /, 0.1
Cc1ccc(-c2[nH]c(-c3ccc(-c4ccccc4)cc3)nc2-c2ccccc2)cc1
    -0.305, /
O=C(COC(=O)c1sc2ccccc2c1Cl)c1ccccc1F
    0.705, 1.4

Source: PubChem (ICCB-Longwood Screening Facility, Harvard Medical School)
